# Screening results as filed in PubChem.
# LANA-H2A inh: blockers of LANA interaction with H2A/H2B – biochemical, FP readout, HTS, primary screen | Protein LANA1 (Human herpesvirus 8 type P (isolate GK18)), Q9QR71 | cell-free LANA-H2A/H2B peptide, fluorescence polarization | inhibition, % (no concentration beside the values) | hit rate 0.6% among 320,000 | AID 2629, 2010; in the data active = inhibition mostly above about 10%, no sharp cut-off; inactive = mostly below about 6.7%;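 note: stock transfer was 7.5 nL into about 10 µL; 0% = median of vehicle wells and 100% = median of positive control wells; one replicate is shown; the record names a cut of 25% in any replicate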
# RanGTP-Impb inh: inhibitors of RanGTP-importin-beta interaction, primary screen, biochemical, FRET, CFP-Ran, YFP-importin-beta, homogeneous | hit rate 1.1% among 300,000 | cell-free CFP-Ran/YFP-importin-beta FRET ratio | inhibition, % (test concentration not listed);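 active = most replicates above 15%; inconclusive = exactly half above 15%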;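 note: 0% = DMSO wells and 100% = Ran loaded with GDP instead of GTP; wells of about 40 µL received 100 nL stock; the first replicate is given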
# A1 inh: caspase 3/7 activation in MEF A1-2A-BIM cells, primary screen, A1 inhibitor project, cell-based, luminescence, HTS; Caspase-Glo 3/7 luminescence, 3 h; percent of clofoctol response, vehicle zero; caspase activation, % (no concentration beside the values); hit rate 0.066% among 330,000; AID 2462, 2010;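 active = over half of replicate activation scores above 10%, or exactly half above 10 with the replicate mean above 10; inconclusive = replicate mean below 10 yet half the replicates above 10; inactive = over half of replicates below 10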;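 note: wells of about 30 µL received 50 nL stock; many hits fall short of the cut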
# UCH37 inh: inhibitors of human UCH37 deubiquitinase, primary screen, biochemical, Ub-AMC cleavage, fluorescence; Ubiquitin carboxyl-terminal hydrolase isozyme L5 (Homo sapiens), Q9Y5K5; purified proteasome/UCH37; inhibition, % (concentration not given with the values); hit rate 0.33% among 330,000;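 active = mean of two replicates above 20%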;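 note: 0% = compound-free wells with enzyme and 100% = wells lacking proteasome; stock transfer was 100 nL into about 20 µL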
# Target sequence (Q9Y5K5 whole entry, looked up): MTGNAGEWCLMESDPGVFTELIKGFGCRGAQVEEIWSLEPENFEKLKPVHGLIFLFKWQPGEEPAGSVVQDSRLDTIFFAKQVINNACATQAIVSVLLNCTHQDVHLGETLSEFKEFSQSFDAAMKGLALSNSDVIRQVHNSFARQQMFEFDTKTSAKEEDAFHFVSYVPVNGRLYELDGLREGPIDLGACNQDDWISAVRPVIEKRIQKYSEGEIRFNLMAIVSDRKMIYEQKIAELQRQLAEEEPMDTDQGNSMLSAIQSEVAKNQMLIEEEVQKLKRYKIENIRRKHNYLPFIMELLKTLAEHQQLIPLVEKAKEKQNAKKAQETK
#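 Schedule: 30 min plus 25 min, room temperature / Material: human UCH37 within purified proteasomes / Technique: AMC fluorescence intensity at 355/460 nm / Buffer or medium: pH 7.4 Tris-HCl (50 mM) with ovalbumin, ATP-MgCl2, DTT / Controls: wells without proteasome as full block, compound-free enzyme plus substrate as uninhibited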
# Calb FLC: C. albicans growth inhibition with fluconazole, primary screen, CaCi-2 strain, Alamar Blue fluorescence | C. albicans CaCi-2 (fluconazole-resistant clinical isolate) + fluconazole, 48 h | hit rate 0.57% among 300,000 | growth inhibition, % (concentration not given with the values);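 active = most replicates above 75%; inconclusive = exactly half above 75%; inactive = most below 75%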;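 note: all wells also contain fluconazole at 8 µg/ml as a sub-toxic cotreatment; 0% = median of DMSO wells and 100% = median of geldanamycin control wells; wells of about 8 µL received 7.5 nL stock; the first replicate is given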
# T cruzi repl: inhibitors of intracellular T. cruzi growth, primary screen, luminescence, NIH3T3 host cells. inhibition, % (no concentration beside the values). T. cruzi beta-gal in NIH3T3, 90 h. hit rate 1.4% among 300,000. AID 1885, 2009;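 active = mean inhibition across valid replicates above about 55%, limit read from the data; inconclusive = mean below that limit but half or more replicates reach it; inactive = mean below it, under half of replicates reach it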;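 note: signal also drops with host cell toxicity which is not excluded here; 0% = plate median of DMSO wells and 100% = zero luminescence signal; higher percent means less beta-gal luminescence so fewer parasites; stock transfer was 50 nL into about 50 µL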
# B2AR ag: beta2AR agonists driving receptor internalization, primary screen, cell-based, FAP fluorogen, flow cytometry; Beta-2 adrenergic receptor (Homo sapiens), P07550; Am2.2-beta2AR cells; reference of the scale not given here; response, % (concentration not given with the values); hit rate 0.43% among 340,000;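 active = response above a set limit, near 3 SD of response in nonfluorescent compounds, cut at about 42% in these data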;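 note: stock transfer was 100 nL into about 11 µL; a reference agonist was the positive control; negative values mostly stem from fluorescent compounds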
# Target sequence (P07550 whole entry, looked up): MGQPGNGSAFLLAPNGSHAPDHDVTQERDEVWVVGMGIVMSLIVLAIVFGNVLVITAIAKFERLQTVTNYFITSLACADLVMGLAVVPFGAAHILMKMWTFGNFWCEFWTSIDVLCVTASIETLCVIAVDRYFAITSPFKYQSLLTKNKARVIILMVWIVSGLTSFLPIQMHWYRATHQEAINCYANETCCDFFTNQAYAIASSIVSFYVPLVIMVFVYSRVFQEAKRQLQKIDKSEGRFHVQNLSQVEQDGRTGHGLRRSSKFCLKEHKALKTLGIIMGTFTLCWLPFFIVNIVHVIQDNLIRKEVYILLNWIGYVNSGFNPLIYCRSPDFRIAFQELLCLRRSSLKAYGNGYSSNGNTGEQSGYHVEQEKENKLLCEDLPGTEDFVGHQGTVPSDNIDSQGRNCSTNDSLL
# Beta apoptosis: inhibitors of cytokine-induced beta cell apoptosis, primary screen, luminescence. AID 435005, 2010. INS-1E cytokine-induced death, ATP luminescence, 48 h; percent of positive-control rescue, neutral wells zero. protection from apoptosis, % (concentration not given with the values). hit rate 0.8% among 300,000;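 active = all replicates at 75% or more, or half of them and the mean; inconclusive = half reach 75% but not the mean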;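 note: 0% = cytokine-treated negative control wells and 100% = positive control rescue; higher means more ATP so stronger rescue from cytokine killing; wells of about 40 µL received 100 nL stock; the first replicate is given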
# * hit, by the source's call; ? = inconclusive; · = not tested or not shown.
SMILES,LANA-H2A inh,RanGTP-Impb inh,A1 inh,UCH37 inh,Calb FLC,T cruzi repl,B2AR ag,Beta apoptosis
O=C(Nc1ccc2c(c1)CCC2)C1COc2ccccc2O1 (configuration not stated),-1.6,·,-1.8,2.3,·,·,17,-1
CCC(C)NC(=O)c1c(-c2cc(Cl)c(OC)c(Cl)c2)noc1C (configuration not stated),0.7,-2.6,0.0,2.6,-4,6,1,1
CC(C)Cc1cc(CN2CCC(CO)(Cc3cccc(C(F)(F)F)c3)CC2)[nH]n1,-4.1,1.4,-0.7,0.2,-5,35,20,7
Cc1ccc(-c2[nH]nc3c2C(c2ccc(OC(=O)N4CCOCC4)cc2)C(C#N)=C(N)O3)cc1 (configuration not stated),9.1,-0.8,-0.4,8.4,-7,0,-6,·
O=C(CN1C(=O)c2cccnc2C1=O)c1ccccc1,0.0,-1.0,-0.2,2.1,53,-12,-4,-5
COc1ccccc1NC(=O)CSc1nnc(COc2ccccc2C)o1,-1.6,8.7,0.6,0.9,3,-2,7,-3
Cc1ccc(C(C)NC(=O)C2CCCC2)cc1C (configuration not stated),0.2,1.7,0.4,-2.1,-4,-2,3,2
CC1CN(C(=O)COC(=O)c2cc(=O)c3ccccc3o2)CC(C)O1 (configuration not stated),10,-2.4,0.5,2.7,-3,-6,3,-2
O=C(Nc1ccn(Cc2ccccc2)n1)c1ccc(F)cc1,-4.9,-3.1,-1.0,1.7,-19,-10,-4,1
COc1cccc(C(=O)Nc2ccccc2NC(=O)c2cccc(OC)c2)c1,-1.7,-0.3,0.1,6.8,11,-14,6,1
OCCOCCn1c(C(CO)Nc2nc(-c3ccc(Cl)cc3)cs2)nc2ccccc21 (configuration not stated),4.3,3.4,-0.4,1.2,-3,20,7,-5
Cc1[nH]nc2c1C(c1ccsc1)C1=C(CC(C)(C)CC1=O)N2 (configuration not stated),-1.3,-1.4,0.1,-281,10,9,11,-1
COc1ccc(OC)c(-c2nnc3n2N=C(c2ccc(OC)c(OC)c2)CS3)c1,-0.2,·,0.4,3.7,·,·,12,39
O=C(NCCN1CCOCC1)c1ccc2ccccc2c1,4.9,0.3,0.3,7.3,7,-11,-2,-9
CC[C@@H](Nc1ncnc2c1oc1ccccc12)C(=O)O,6.0,3.6,-0.6,-3.0,-1,-5,-4,0
COc1cc(OC)cc(-c2c(-c3ccc(F)cc3)c3cc(-c4ccc5cc[nH]c5c4)ccc3n2C)c1,2.5,·,0.9,-19,·,·,-1,5
Cc1cc(C)n(-c2ccc(C(=O)N3CC(C)OC(C)C3)cc2)n1 (configuration not stated),4.8,-0.2,-0.8,0.7,-1,-7,-9,-1
COc1cc(/C=N/NC(=O)c2ccc(CN3c4cccc5cccc(c45)S3(=O)=O)cc2)cc(OC)c1O,·,2.6,·,·,-1,18,12,·
Cc1cccc(N2CC(C(=O)Nc3ccccc3N3CCCC3)CC2=O)c1C (configuration not stated),-4.2,1.4,-0.2,-3.4,5,-14,-8,-1
COc1cccc(/C=C2\SC(=S)N(CCC(=O)N3CCCCC3CCO)C2=O)c1 (configuration not stated),-7.1,2.7,-1.0,3.2,-1,-4,13,-33

# Exported with bars between the fields: 3 of the compounds above.
Molecule | LANA-H2A inh | RanGTP-Impb inh | A1 inh | UCH37 inh | Calb FLC | T cruzi repl | B2AR ag | Beta apoptosis
OCCOCCn1c(C(CO)Nc2nc(-c3ccc(Cl)cc3)cs2)nc2ccccc21 (configuration not stated) | 4.3 | 3.4 | -0.4 | 1.2 | -3 | 20 | 7 | -5
Cc1ccc(C(C)NC(=O)C2CCCC2)cc1C (configuration not stated) | 0.2 | 1.7 | 0.4 | -2.1 | -4 | -2 | 3 | 2
O=C(CN1C(=O)c2cccnc2C1=O)c1ccccc1 | 0.0 | -1.0 | -0.2 | 2.1 | 53 | -12 | -4 | -5

# (next part)
SMILES,LANA-H2A inh,RanGTP-Impb inh,A1 inh,UCH37 inh,Calb FLC,T cruzi repl,B2AR ag,Beta apoptosis
N#Cc1nc(NCC(F)F)nc(Nc2cc(F)cc(F)c2)n1,-1.7,·,-0.1,5.5,·,·,18,5
COc1ccc(NC(C)C(=O)N/N=C/c2ccccc2OCc2ccc(Br)cc2)cc1 (configuration not stated),-1.7,6.9,1.8,·,6,8,16,-2
O=S(=O)(c1ccc2ccccc2c1)N(CC(O)CN1CCOCC1)c1ccccc1 (configuration not stated),-8.3,3.6,-0.1,2.5,-12,-3,-12,-3
COc1ccccc1N(CC(=O)NCc1ccc2c(c1)OCO2)C(=O)CCC(=O)Nc1nccs1,-1.9,1.8,0.3,2.8,2,5,4,-1
Oc1ccc(/C=N/N(Cc2ccccc2)c2ccccc2)c(O)c1O,·,-0.8,·,·,-8,0,2,·
Cc1ccccc1NC(=O)Cc1nc(-c2ccc3ccccc3c2)cs1,-8.4,5.1,0.7,-0.1,2,8,20,3
O=C(C[n+]1ccc(C(=O)N/N=C/c2ccc(Br)cc2)cc1)c1ccccc1,-3.4,2.7,-0.1,·,-10,-1,-5,-2
O=C(NC12CC3CC(CC(C3)C1)C2)c1ccccc1O,-2.6,2.4,1.4,-4.1,-2,15,2,-1
Cc1cc(Nc2ccc(C)c(Cl)c2)nc(N2CCOCC2)n1,-9.3,2.4,0.0,-0.4,15,33,16,10
O=C(Nc1cccnc1)c1ccc(COc2cc(Cl)ccc2Cl)o1,4.3,2.9,-0.5,-2.0,-7,-14,-7,-4
CC(C)C(NC(=O)C12CC3CC(CC(C3)C1)C2)C(=O)O (configuration not stated),-7.2,0.2,0.6,1.7,-5,-2,-2,-1
CC(NC(=O)c1ccc(F)cc1)C(=O)NC1=NCCS1 (configuration not stated),-4.8,-4.0,-1.2,-0.1,-3,9,-1,·
O=c1nc(N2CCCCC2)nc(Nc2ccccc2)[nH]1,2.5,7.6,-1.4,2.8,15,3,-2,-2
Cc1ccc(C(=O)CCC(=O)Nc2ccccc2F)cc1,-3.3,-3.6,-2.2,3.6,-4,2,12,·
CCN(CC)C1CCN(C(=O)c2ccc3nc(Cc4ccc(OC)cc4)oc3c2)C1 (configuration not stated),·,?,·,5.1,-4,5,1,·
Nc1nnc(SCC(=O)Nc2cc(S(=O)(=O)N3CCOCC3)ccc2Cl)s1,4.2,-3.0,0.6,-0.1,-22,4,-3,-1
O=C(O)c1cc2nc(-c3cccs3)cc(C(F)(F)F)n2n1,-0.1,?,-0.1,-73,-2,-16,-4,-12
N#CCCN(C(=O)COC(=O)C1=NNC(=O)CC1)c1ccccc1,-8.0,?,-0.1,0.2,1,-2,-1,2
COc1ccc(N2CC(O)(c3ccc(C)cc3)[N+]3=C2CCCC3)cc1 (configuration not stated),1.6,-2.2,0.7,2.3,-18,24,0,-7
N#CC1=C(SCC(=O)Nc2ccc(C(=O)O)cc2)NC(=O)CC1c1ccco1 (configuration not stated),6.6,-1.4,-0.5,5.5,7,-10,-4,-8
O=C(c1cc2ccccn2n1)N1CCN(Cc2ccccc2)CC1,-3.2,?,-0.3,1.2,-2,4,-6,-3
CC(C)C1N=C2c3ccccc3N=C(SCC(=O)NCCc3ccc(S(N)(=O)=O)cc3)N2C1=O (configuration not stated),-2.7,0.1,0.1,-60,6,-4,6,1
COc1cc(-c2nnc(SCC(=O)NC3CCCC3)n2C)cc(OC)c1O,-0.2,2.4,-0.1,·,3,7,-4,2
CN1CCN(CC(O)Cn2c3ccccc3c3ccccc32)CC1 (configuration not stated),1.5,0.3,-0.1,2.3,·,21,4,-11
O=C(CNC(=O)c1ccc(Br)o1)OCC(=O)c1cccc([N+](=O)[O-])c1,-2.4,0.2,-0.2,3.5,3,-2,-6,-4
CC1CCN(C(=O)c2ccc(CS(=O)(=O)Cc3ccccc3)cc2)CC1,1.3,-1.9,-0.1,4.4,-1,-1,-1,6
Cc1cc(OCC(=O)Nc2ccc(S(=O)(=O)N3CCN(C)CC3)cc2)ccc1Cl,1.6,2.0,-0.4,6.6,4,1,-1,-3
CC(=O)Nc1ccc(/C=C2\CCc3ccccc3C2=O)cc1,-2.9,0.6,-2.7,0.5,-27,-15,7,4
COc1ccccc1C(=O)NC(=O)COC(=O)C1CC1,2.0,·,-0.4,-1.8,-2,6,9,-3
COC(=O)c1nc(N)sc1-c1ccc(Cl)cc1,1.3,-2.5,-1.0,-45,33,-25,0,-2
COc1ccc(NC(=S)N(Cc2cccnc2)Cc2cc3cc(OC)c(OC)cc3[nH]c2=O)cc1,7.7,-2.9,0.3,-7.9,-13,13,22,13
CC(=O)Nc1nnc(SCC(=O)NC(C)(C)C)s1,6.0,?,0.6,3.6,0,0,0,-3
CC(=O)c1ccc2c(c1)c(C#N)c1ccccc1[n+]2[O-],·,68*,·,-169,-1,-8,-8,·
O=C1N/C(=C\c2ccc(N3CCOCC3)c(F)c2)C(=O)N1Cc1ccccc1,3.6,1.5,1.5,-46,-4,0,8,28
Cc1ccc(NC(=O)CSCc2ccc(F)cc2)cc1,2.2,-1.2,-0.8,1.6,-30,-6,-2,-10
Cc1ccc2occ(/C=N/NC(=O)c3ccccc3Br)c(=O)c2c1,2.3,-0.6,0.7,·,14,-4,4,-10
COC(=O)[C@@H]1C[C@H]2CC[C@H](O)C[C@H]2N1Cc1ccccc1OC(=O)c1cccs1,0.5,-2.7,?,-0.2,8,2,7,-2
COc1nc(-c2ccccc2)ccc1-c1noc(-c2ccco2)n1,-7.9,-0.4,-5.6,-5.9,8,6,-3,-3
CNS(=O)(=O)c1cc(C(=O)O)ccc1OC,3.2,-0.8,-0.5,-0.6,-2,-19,3,-1
COc1ccccc1C(=O)Nc1ccc(-c2nnn(CC(=O)N3CCOCC3)n2)cc1,1.1,4.2,-0.2,4.8,-8,-10,-21,5
COc1ccc(COC(=O)NC2CCN(S(=O)(=O)c3ccc(OC)cc3)CC2)cc1,-5.5,1.6,0.8,1.3,3,11,-2,0
Cc1ccc(NC(=O)C2CC(Cl)=CCC2C(=O)O)c([N+](=O)[O-])c1 (configuration not stated),6.5,-1.3,-0.4,2.4,-3,3,4,-4
Cc1cccc(C)c1NC(=O)C(c1ccccc1)N1CCC1=O (configuration not stated),5.9,-0.7,-0.6,1.0,-4,-16,5,-10
CCOC(=O)c1c(NC(=O)CN2CCCCC2)sc(CN(C)C)c1-c1ccccc1,2.4,0.3,-0.6,5.6,11,68*,4,6
CN(C)N1C(N)=C(C#N)C(c2ccccc2F)C2=C1CC(C)(C)CC2=O (configuration not stated),2.3,-5.6,1.0,4.2,0,18,3,-5
O=C(CSc1nc2ccccc2nc1SCC(=O)N1CCCCC1)N1CCCCC1,-0.9,5.4,-0.8,6.0,-7,18,-8,-2
CCCCn1c(N)c(N(CCOC)C(=O)COC(=O)COc2cc(C)ccc2Cl)c(=O)[nH]c1=O,1.0,1.3,0.2,5.2,-1,-6,-1,·
